CSC inhib – blocks cancer stem cells; hit rate 1.1% among 300,000; cancer stem cell-like cells viability, luminescence; inhibition, % at 7.5 µM;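 active = mean at 75% or more and at least half the replicates too; inconclusive = mean and replicates disagree; tested in HMLE shEcad cells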;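 also: 0% = median of negative and 100% = median of positive control wells; the first replicate is given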
MT1-MMP act inh – inhibitors of human MT1-MMP activation. P50281. HT1080 RFP-PRO-GFP cells, GFP/RFP ratio fluorescence, overnight; percent of plate control window, DMSO zero. GFP/RFP ratio change, % at 20 µM. hit rate 0.061% among 360,000. AID 651647;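 active = GFP/RFP ratio change of at least 30% with cell ATP level not reduced by more than half and red fluorescence within 50% of control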; also: strong numbers were not always called active
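Assay system: HT1080 RFP-PRO-GFP cells. Benchmarks: DMSO vehicle wells and RFP-L50D-GFP reporter cell wells. Times: overnight cell settling, then overnight compound exposure, 37 °C, 5% CO2. Compound: 20 µM single dose, 1% DMSO. Read-out basis: GFP/RFP fluorescence ratio.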
PABP polyA inh – PABP-poly(A) binding inhibition; P11940; PABP-poly(A) RNA binding, fluorescence polarization; inhibition, % at 35 µM; hit rate 1% among 290,000;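 active = 50% or more with normal probe brightness, or confirmed in later tests; inconclusive = above 50% with abnormal brightness, or retests that disagree; inactive = below 50% or failed in later tests; about a fifth of its hits are not listed in these tables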;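 also: calls also rest on retests at 20 µM and on dose response follow-up; controls were probe without protein and protein plus probe with vehicle; some compounds called inactive have numbers as strong as hits; many hits fall short of the cut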
Rce1 inhib – inhibitors of yeast Ras-converting enzyme; AID 2563; hit rate 0.27% among 290,000; calls only; Q03530; yeast membranes, quenched prenylated peptide cleavage fluorescence;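 active = fall in fluorescence gain of 50% or more versus controls, with final raw signal at or below 3038400; inconclusive = same 50% fall but final raw signal above 3038400; inactive = fall in fluorescence gain under 50%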;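 also: plate controls were neutral control wells for no effect and wells lacking membranes for full effect; tested at 10 µM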
Target sequence (Q03530 whole entry, looked up): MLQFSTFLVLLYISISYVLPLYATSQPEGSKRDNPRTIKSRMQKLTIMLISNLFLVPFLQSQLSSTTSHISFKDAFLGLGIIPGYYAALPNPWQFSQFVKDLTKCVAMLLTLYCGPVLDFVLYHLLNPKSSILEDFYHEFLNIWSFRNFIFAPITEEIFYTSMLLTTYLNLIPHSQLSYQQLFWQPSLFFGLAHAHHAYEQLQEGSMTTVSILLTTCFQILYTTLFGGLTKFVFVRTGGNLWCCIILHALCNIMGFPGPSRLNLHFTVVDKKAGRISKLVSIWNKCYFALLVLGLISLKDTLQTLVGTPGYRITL
UUG fidelity – yeast start codon fidelity modulation; S. cerevisiae UUG-firefly luciferase reporter, luminescence/redox ratio; activity score, % at 18.7 µM; hit rate 0.13% among 350,000; AID 602363;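 active = replicate mean at a twofold rise or more, about +100% in these data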;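 also: firefly luciferase made from a UUG start codon reports start codon fidelity; reporter light over untreated wells divided by growth signal over untreated wells; some hits fall short of that in this replicate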
Env fusion inh – inhibitors of HIV Env-mediated cell fusion; inhibition, % at 12.3 µM; HeLa-JRFL Env/CEM21 cell fusion, luciferase; hit rate 1.1% among 360,000;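 active = mean replicate inhibition score of at least 50 and every replicate individually at or above 50; inconclusive = only one of the two criteria met; inactive = mean below 50 and not all replicates reaching 50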;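 also: 0% = plate neutral controls and 100% = maraviroc near 300 nM; one replicate is shown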
eIF4H inh – inhibitors of RNA binding by human eIF4H; eIF4H fluorescence polarization binding assay; inhibition, % at 35 µM; hit rate 0.94% among 290,000;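 active = 50% or more with normal probe brightness, or confirmed in later tests; inconclusive = above 50% with abnormal brightness, or retests that disagree; inactive = below 50% or failed in later tests; about a fifth of its hits are not listed in these tables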;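 also: calls also rest on retests at 20 µM and on dose response follow-up; 0% = protein and probe with vehicle and 100% = probe without protein; strong numbers were not always called active; many hits fall short of the cut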
eIF4H inh retest – recorded beside eIF4H inh, whose call it bears; inhibition, %; compound at 20 µM; confirmation average;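 mean of two retest wells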
PABP polyA inh retest – further read-out of PABP polyA inh, marked with its call; inhibition, %; compound at 20 µM; confirmation repeats;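 mean of two retest wells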
MT1-MMP act inh RFP – also measured in MT1-MMP act inh; calls as there; RFP signal change, %; measured here: RFP expression control read;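 0 = vehicle wells; hits needed this value within 50% of zero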
* = called active by the depositor; i = inactive; u = inconclusive; x = no result given.

Start of the data: the first 6 entries as a preview:
SMILES	CSC inhib	MT1-MMP act inh	MT1-MMP act inh RFP	PABP polyA inh	Rce1 inhib	UUG fidelity	Env fusion inh	eIF4H inh	others
Cc1ccc(C(=O)NCCNS(=O)(=O)c2ccccc2[N+](=O)[O-])cc1	-2	0	0	13	i	-13	6	-2
O=C(Nc1cccc(-c2cn3ccccc3n2)c1)c1cccc(Cl)c1	u	4	-9	-6	i	x	x	-3
CC(=O)Nc1ccc(S(=O)(=O)N2CCCC2)cc1	3	0	3	5	i	-4	-10	4
CC(NC(=O)c1ccco1)C(=O)OC(C)C(=O)NCc1ccccc1 (configuration not stated)	-4	0	3	3	i	-13	-19	3
O=c1oc2cc(O)ccc2cc1S(=O)(=O)c1ccccc1	6	-1	-1	16	u	2	-14	2
O=C(Cc1ccccc1)CC1(O)C(=O)Nc2ccccc21 (configuration not stated)	10	-2	4	-1	i	-36	2	0

The list itself, repeating the preview:
SMILES	CSC inhib	MT1-MMP act inh	MT1-MMP act inh RFP	PABP polyA inh	Rce1 inhib	UUG fidelity	Env fusion inh	eIF4H inh	others
Cc1ccc(C(=O)NCCNS(=O)(=O)c2ccccc2[N+](=O)[O-])cc1	-2	0	0	13	i	-13	6	-2
O=C(Nc1cccc(-c2cn3ccccc3n2)c1)c1cccc(Cl)c1	u	4	-9	-6	i	x	x	-3
CC(=O)Nc1ccc(S(=O)(=O)N2CCCC2)cc1	3	0	3	5	i	-4	-10	4
CC(NC(=O)c1ccco1)C(=O)OC(C)C(=O)NCc1ccccc1 (configuration not stated)	-4	0	3	3	i	-13	-19	3
O=c1oc2cc(O)ccc2cc1S(=O)(=O)c1ccccc1	6	-1	-1	16	u	2	-14	2
O=C(Cc1ccccc1)CC1(O)C(=O)Nc2ccccc21 (configuration not stated)	10	-2	4	-1	i	-36	2	0
Cc1c(/C=N\NC(=O)c2cccc(F)c2)cnn1C	-6	-1	4	-11	i	-21	-18	1
CCOC(=O)c1c(CN2CCOCC2)oc2ccc(OC)cc12	-8	-3	2	4	i	7	-75	-4
COc1ccc(-n2c(N)c(-c3nc4ccccc4n3C)sc2=S)cc1	-4	-1	4	-8	i	x	x	6
COc1cccc(C(=O)Nc2ccc(S(=O)(=O)NCc3ccco3)cc2)c1	-3	6	-8	4	i	10	40	-4
COc1ccc(C(=O)OCC(=O)NC2CC2)cc1S(=O)(=O)N(C)Cc1ccccc1	-5	3	3	x	i	-5	4	x
COCCNC(=O)/C(C#N)=C/C=C/c1ccccc1	4	-4	-3	15	i	-2	4	2
Cc1[nH]c(=O)[nH]c1C(=O)CCCCC(=O)OCC(=O)Nc1ccccn1	0	0	1	9	i	x	x	110	eIF4H inh retest=3;PABP polyA inh retest=17
Cc1ccc(C23CC4CC(CC(C(=O)NC(C)C)(C4)C2)C3)cc1	-2	-4	-11	-2	i	-10	-16	-8
O=C(NC(=S)Nc1ccccc1O)c1ccc(Cl)cc1Cl	-10	-2	-8	-4	x	-22	-32	6
CCOc1ccccc1/C=N/Nc1nc2ccccc2o1	5	3	3	-8	i	-4	-8	6
CCCc1c(C)nc2c(OC)cccc2c1SCC(=O)O	1	4	3	7	i	-13	-9	0
COC(=O)C1CCN(S(=O)(=O)c2c(C)n(C)c(=O)n(C)c2=O)CC1	-2	5	8	4	i	-9	x	-1
NC(=O)CC(NC(=O)Cc1cccc2ccccc12)c1ccc(NCCc2ccc(F)cc2)c([N+](=O)[O-])c1 (configuration not stated)	-11	1	-3	-12	i	-20	3	-6
COC(=O)C1CN(S(=O)(=O)c2ccccc2)CCN1S(=O)(=O)c1ccccc1 (configuration not stated)	9	-8	1	-4	i	-14	-107	-2
O=C(NCCN1CCOCC1)c1ccc(CSCc2cccc(Cl)c2)o1	-6	2	-1	4	i	x	9	13
CCOC(=O)C1CCN(C(=O)C(=O)c2cn(CC(=O)N3CCCCCC3)c3ccccc23)CC1	x	-9	1	17	i	6	x	41
Cc1nc2nc(N)nc(OCc3ccccc3)c2nc1C	3	3	-1	x	i	-15	9	x
Cc1nc(NC(=O)c2ccc3c(c2)OCO3)ccc1Br	4	-1	-4	-1	i	x	-104	-8
CCOc1ccccc1C1NC(=O)NC(C)=C1C(=O)OC1CCCCC1 (configuration not stated)	-1	-3	-3	-5	i	-7	-12	5
COc1ccc(C)cc1S(=O)(=O)N(C)CC(=O)N1CCCCC1	-6	-1	1	x	i	-4	x	x
CCCN1CCC(NCC(C)c2ccccc2)CC1 (configuration not stated)	-11	2	-1	8	i	0	-9	3
O=C(COc1ccccc1)Nc1c2c(nn1-c1ccccc1)CS(=O)(=O)C2	-6	-1	-4	-2	i	-18	-43	-7
CCOCCCNC(=O)/C(C#N)=C/c1cc(OC)c(O)c([N+](=O)[O-])c1	55	5	-18	16	i	x	-36	-12
Cc1ccc(CNC(=O)c2c(-c3ccccc3Cl)noc2C)cc1	-2	-1	0	-4	i	-8	3	-1

Gathered by group, the compounds so far with two or more sulfur atoms
SMILES	CSC inhib	MT1-MMP act inh	MT1-MMP act inh RFP	PABP polyA inh	Rce1 inhib	UUG fidelity	Env fusion inh	eIF4H inh	others
COc1ccc(-n2c(N)c(-c3nc4ccccc4n3C)sc2=S)cc1	-4	-1	4	-8	i	x	x	6
COC(=O)C1CN(S(=O)(=O)c2ccccc2)CCN1S(=O)(=O)c1ccccc1 (configuration not stated)	9	-8	1	-4	i	-14	-107	-2

(continued)
SMILES	CSC inhib	MT1-MMP act inh	MT1-MMP act inh RFP	PABP polyA inh	Rce1 inhib	UUG fidelity	Env fusion inh	eIF4H inh	others
O=C(c1cc(-c2ccc(Cl)cc2)n[nH]1)N1CCc2ccccc2C1	-8	1	1	10	i	-1	-2	6
CC1CCc2nc3ccccc3c(C(=O)OCC(=O)N(C)C3CCS(=O)(=O)C3)c2C1 (configuration not stated)	9	-7	-2	21	i	x	10	5
Cc1ccc(C(=O)CSc2nc3ccccc3o2)cc1	1	3	5	67	i	x	-37	-5	eIF4H inh retest=24;PABP polyA inh retest=22
CCN(Cc1ccccc1)C(=O)C1CCN(c2ncnc3c2nc2n3CCCCC2)CC1	-6	-1	-4	1	i	-6	3	-3
O=C(Cc1ccccc1)NCC(=O)OCC(=O)c1cccc([N+](=O)[O-])c1	17	1	2	-14	i	x	x	-12
NC(=O)COC(=O)CN1C(=O)C2CCCCC2C1=O (configuration not stated)	-2	2	-1	-3	i	-16	-7	4
COc1ccc(/C(N)=N/OC(=O)CSc2ccccc2)cc1OC	45	-7	-6	-4	i	-6	-234	-2
CCN(CC)S(=O)(=O)c1ccc(NN=C2CCN(C(C)C)CC2)c([N+](=O)[O-])c1	36	-2	0	2	i	-25	-39	-2
N#Cc1cc(O)c(-n2nnc3ccccc32)cc1C#N	-2	0	0	0	i	-15	-1	10
CCN1C(=O)c2cccc3c(NC(=O)c4cccc(N5C(=O)CCC5=O)c4)ccc1c23	-14	5	9	-2	i	x	x	-4
CCOC(=O)N1CCN(C(=O)c2ccc3c(=O)n(CCc4ccccc4)c(=S)[nH]c3c2)CC1	-2	2	-7	2	i	6	x	0
COc1cccc(COC(=O)c2ccc3c(=O)n4c(nc3c2)CCC4)c1OC	x	2	3	x	i	5	0	x
CCC(=O)N1CCc2cc(Br)cc(S(=O)(=O)NCCN3CCCCC3C)c21 (configuration not stated)	-17	0	4	-5	i	-1	15	-8
Cc1nc(SCC(=O)N2CC(=O)Nc3ccccc32)nc(C)c1C	-17	0	3	22	i	x	-15	2
CCn1cc(/C=C(\NC(=O)c2cc(OC)c(OC)c(OC)c2)C(=O)N2CCN(C)CC2)c2ccccc21	3	1	6	-5	i	x	0	-10
O=C(COc1ccc(S(=O)(=O)NCc2ccccc2)cc1Cl)N1CCOCC1	-2	-1	-3	11	i	3	9	8
COc1cc(/C=C/C(=O)OCC(=O)NCCc2ccccc2)ccc1OC(F)F	-5	-4	3	1	i	-3	-3	4
Cc1nc2c(C#N)c(C)[nH]n2c(=O)c1Cc1ccccc1	2	4	8	1	i	-7	x	-1
CC(=O)OC(C)CS(=O)(=O)c1ccccc1 (configuration not stated)	-5	x	x	-3	i	x	-9	-8
CCOc1ccc2cc(C#N)c(SCC(=O)N3CCC(C)CC3)nc2c1	9	-2	-3	2	i	-21	-14	-4
O=c1c(Cc2ccccc2O)c(O)nc2n1CCCS2	-6	-2	1	-7	i	-9	0	-6
COC(=O)c1cc(C(=O)Nc2ccc(C)cn2)cc([N+](=O)[O-])c1	15	2	5	3	i	-4	4	-17
CC1CCN(CC(=O)Nc2cccc([N+](=O)[O-])c2)CC1	-5	13	5	-10	i	x	x	5
CC(=O)N(C1=C(N)C(=O)c2ccccc2C1=O)c1ccccc1	0	-2	-2	-6	i	20	-5	-5
CC(=O)Nc1ccc2c(c1)C(=O)c1ccc(Cl)cc1-2	x	-1	-1	x	x	2	0	x
COCCCNC(=O)c1cn(CC(C)C)c(=O)c2c1c1ccccc1n2C	-16	2	4	3	i	-11	-3	-1
Cc1ccc(O)c(CP(=O)(c2ccccc2)c2ccccc2)c1	-5	8	4	10	i	-14	2	6
Cc1cc(Cl)ccc1OC(C)C(=O)Nc1ccc(S(=O)(=O)N2CCOCC2)cc1 (configuration not stated)	14	-2	-7	-7	i	-21	-15	-14
COc1ccc(CCNC(=O)CCc2nnc(Cc3ccc4c(c3)OCO4)o2)c(OC)c1	-11	1	1	-5	i	10	-10	2

Structures listed so far that have an aryl thioether with sulfur outside any ring:
SMILES	CSC inhib	MT1-MMP act inh	MT1-MMP act inh RFP	PABP polyA inh	Rce1 inhib	UUG fidelity	Env fusion inh	eIF4H inh	others
CCCc1c(C)nc2c(OC)cccc2c1SCC(=O)O	1	4	3	7	i	-13	-9	0
Cc1ccc(C(=O)CSc2nc3ccccc3o2)cc1	1	3	5	67	i	x	-37	-5	eIF4H inh retest=24;PABP polyA inh retest=22
COc1ccc(/C(N)=N/OC(=O)CSc2ccccc2)cc1OC	45	-7	-6	-4	i	-6	-234	-2
Cc1nc(SCC(=O)N2CC(=O)Nc3ccccc32)nc(C)c1C	-17	0	3	22	i	x	-15	2
CCOc1ccc2cc(C#N)c(SCC(=O)N3CCC(C)CC3)nc2c1	9	-2	-3	2	i	-21	-14	-4

This is a subset (hit frequency here may not be typical).
